Compound activity from PubChem BioAssay.
NPYLR7 agonist: activates Aedes aegypti NPYLR7 receptor | activation, % at 10 µM | actives 0.15% (n = 270,000) | HEK293T NPYLR7/Galpha15, GCaMP6s calcium fluorescence; in the data active = activation above about 40%;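 note: 0% = vehicle and 100% = reference agonist at the receptor; some compounds past the cut are filed as inactive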
NPYLR7 agonist max-min: second read-out of NPYLR7 agonist, no call of its own (marks repeat the call); activation, %; measured here: Max-Min RFU normalised activation; some inactives read as strong as hits;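 span of the calcium signal over five minutes; 0% = vehicle and 100% = native peptide agonist; compound fluorescence can raise it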
Starred values were filed as active, the others as inactive; & = joins results of further samples. These rows are one share of the data; rates above refer to the full screens.

Below each SMILES: NPYLR7 agonist	NPYLR7 agonist max-min
CCOC(=O)c1nc2cc(C)c(C)cc2nc1N1CCN(C(=O)c2snnc2C)CC1
  6.5	-1.3
Clc1cncc(OC/C=C/COc2cncc(Cl)c2)c1
  4.6	11.4
OCC(O)C(O)C(O)C(O)/C=N\Nc1nc(N2CCOCC2)nc(N2CCOCC2)n1 (stereo not drawn)
  -2.3	-7.2
CCN1CCCC(C(=O)Nc2ccc(-c3cccc(OC)c3)cc2)C1 (stereo not drawn)
  -3.3	-7.0
Nc1cc(-c2ccc(Cl)c(Cl)c2)nn1-c1ccc(C(=O)NCC2CCCCC2)cc1
  6.7	1.5
Cc1ccc(S(=O)(=O)NCc2nnnn2-c2ccc(C)c(C)c2)cc1
  -3.1	-5.0
O=c1[nH]c(-c2ccc(Cn3cccn3)cc2)nc2ccsc12
  -5.4	42.8
CCSc1nsc(SCC)c1C(N)=O
  21.8	16.3
COCCC1(C(=O)O)CCCN(c2ccnc3cc(Cl)ccc23)C1 (stereo not drawn)
  0.8	0.6
Cc1ccc(OCC(=O)Nn2cnc3c(cnn3-c3ccccc3)c2=O)cc1
  2.8	-1.7
Cc1cccc2nc(COc3ccc(S(=O)(=O)c4ccccc4)cc3)cc(=O)n12
  12.8	7.2
O=C(O)c1ccsc1
  0.2	6.5
Cc1cc(O)c(C(c2cccc(F)c2)c2c(O)cc(C)n(CCO)c2=O)c(=O)n1CCO
  0.8	2.1
C=CCN=c1scc(-c2ccco2)n1N=Cc1ccc(O)c(O)c1O
  14.9	5.8
O=C1[C@@H]2C[C@H](O)CCN2C(=O)CN1Cc1ccccc1C(F)(F)F
  3.8	3.0
COc1ccc(NC(=O)CSc2nc3c(-c4ccccc4)c[nH]c3c(=O)n2C(C)C)c(OC)c1
  -1.2	-5.2
O=C(NCCc1ccccn1)C1CCCCC1C(=O)N1CCc2c([nH]c3ccccc23)C1 (stereo not drawn)
  -6.6	-12.3
CCN1/C(=c2/s/c(=C3\SC(=S)N(N)C3=O)n(-c3ccccc3)c2=O)C=Cc2cc(C)ccc21
  -12.1	-16.7
CC(C)NC(=O)NC(=O)C(C)OC(=O)c1ccc(C2SCCS2)cc1 (stereo not drawn)
  13.2	7.7
Cc1ccc(C)n1-c1sc2c(c1C#N)CCC(C)C2 (stereo not drawn)
  1.2	0.6
Cn1c(CSCCCOc2ccc(Cl)cc2)cc(=O)n(C)c1=O
  -0.9	-1.5
Cc1cn2c3c(=O)n(C)c(=O)n(C)c3nc2n1CCCc1ccccc1
  -9.9	-8.5
CC(C(=O)Nc1cccc(Cl)c1Cl)N1CCN(S(=O)(=O)Cc2ccccc2)CC1 (stereo not drawn)
  6.0	5.3
CCN(C(=O)c1ccc(C)c(-n2cccc2)c1)C1CCCC1
  2.2	-1.3
CCc1ccc(-c2nc(C(N)=O)c3[nH]c(=O)n(-c4ccc(C(C)(C)C)cc4)c3n2)cc1
  -3.9	-4.3
COc1ccc(NC(=O)N2CCc3cc(OC)c(OC)cc3C2c2cccc(C(F)(F)F)c2)c(C)c1 (stereo not drawn)
  9.9	6.4
CCn1ncnc1CN1CCOc2c(O)cc(-c3ccc(C)s3)cc2C1
  12.0	-4.5
CC(=O)c1ccc(NC(=O)Cn2cnc3c(nnn3Cc3ccccc3)c2=O)cc1
  -0.5	0.4
CN(C)CCNc1cc(-c2ccccc2)nc2c(-c3ccccc3)cnn12
  4.4	3.5
CCOC(=O)N1CCN(c2c(NCCCOC)c(=O)c2=O)CC1
  7.2	10.7
COc1ccc(OCC(O)CN(Cc2nc3scc(-c4ccccc4F)c3c(=O)[nH]2)C(C)C)cc1 (stereo not drawn)
  -2.6	-1.3
CC(C)CN(Cc1ccccc1OS(=O)(=O)c1ccc(F)cc1)C(=O)c1ccccc1F
  -7.2	-0.7
CCN(CC(=O)Nc1c(F)cccc1F)Cc1cccc(C(=O)OC)c1
  9.3	6.6
CCNc1nnc(SCC(=O)NCCSCc2ccccc2F)s1
  0.5	-2.1
Nc1ncnc2c1ccn2[C@H]1CN(Cc2ccc3c(c2)OCO3)C[C@@H](COC(=O)c2ccccc2)O1
  6.0	4.0
O=C(Nc1ccccc1C(F)(F)F)c1nn2c(C(F)(F)F)cc(-c3cccs3)nc2c1Cl
  -11.2	-19.9
COc1ccccc1NC(=O)N(CC(=O)N(Cc1ccc2c(c1)OCO2)Cc1cccs1)CC(C)C
  16.5	16.1
Cc1ccc(N(CC(=O)N/N=C\c2cccs2)S(C)(=O)=O)cc1Cl
  6.1	10.0
CC(=O)O[C@@H](C)C(=O)N1CCN(c2ccc(NC(=O)c3ccccc3F)cn2)CC1
  -2.3	10.2
CCOCCCNc1nc(Nc2cccc(C)c2)c2cnn(-c3ccccc3)c2n1
  1.3	1.5
O=C(c1cccc2c1OCC2)N1CCc2[nH]nc(-c3ccc4c(c3)OCO4)c2C1
  -0.9	-0.3
O=[n+]1cc(-c2cc3ccccc3o2)n([O-])c2c1CCCC2
  -3.1	4.2
CC1CCN(C(=O)C2CCN(C(=O)c3ccsc3)CC2)c2ccccc21 (stereo not drawn)
  7.0	3.4
CCCOc1ccc2c(c1)OCC(C(=O)Nc1cnn(C)c1)=C2
  7.6	8.3
O=S(=O)(c1ccc(Cl)s1)N1CCN(CCc2ccccc2)CC1
  3.3	1.4
CCc1cccc(NC(=O)N2CCSC2c2cccc(Oc3ccccc3)c2)c1 (stereo not drawn)
  27.3	25.3
Cc1cc(NC(=O)CN2CCCC(Nc3ccc(C(C)C)cc3)C2)no1 (stereo not drawn)
  7.8	4.3
CC1CC(OC(=O)CC2Sc3ccccc3NC2=O)C(=O)O1 (stereo not drawn)
  2.7	2.8
COC(=O)C(c1ccccc1F)C1C=CC(NC(=O)c2sccc2Br)C1 (stereo not drawn)
  20.6	26.1
COc1ccc(C(=O)N(CCN(C)C)Cc2c(-c3ccccc3)noc2N2CCCC2)cc1
  9.8	13.2
CC(C)CCc1nc(N2CCN(C(=O)c3ccco3)CC2)c2cnn(-c3cccc(Cl)c3)c2n1
  26.8	31.1
Cc1nn(C)c(N2CCOCC2)c1CN1CCCC(Cn2ccnc2)C1 (stereo not drawn)
  -2.2	-5.5
O=c1c2ccccc2nc2ccc(N3CCC4CCCCC4C3)nn12 (stereo not drawn)
  10.1	6.5
CC1(C(=O)NS(=O)(=O)c2cccc(Cl)c2)CCN1C(=O)Cc1cccs1 (stereo not drawn)
  7.8	7.4
CC(=O)N(CN1C(=O)c2ccc([N+](=O)[O-])cc2C1=O)c1ccc(Oc2ccccc2)cc1
  3.0	6.9
O=C(c1nnc2n1CCN(Cc1ccc3ccccc3n1)C2)N1CCOCC1
  18.8	10.4
COc1cc2c(cc1OC)CN(C1CCCN(C(=O)CN3CCOC3=O)C1)CC2 (stereo not drawn)
  2.4	0.9
CCCN(CC(=O)N(Cc1cccn1Cc1ccc(Br)cc1)C1CCCCC1)S(=O)(=O)c1cccc(C(F)(F)F)c1
  -2.9	5.4
O=C(CCc1cc2c(n1-c1ccc(Cl)cc1)-c1ccccc1OC2)NCc1cccs1
  4.2	3.1
O=C(c1ccccc1Br)N(Cc1cccc(OS(=O)(=O)c2cccc(C(F)(F)F)c2)c1)Cc1ccco1
  -9.9	-12.8

Molecules from the list above that contain an NH in an aromatic ring (6):
Below each SMILES: NPYLR7 agonist	NPYLR7 agonist max-min
O=c1[nH]c(-c2ccc(Cn3cccn3)cc2)nc2ccsc12
  -5.4	42.8
COc1ccc(NC(=O)CSc2nc3c(-c4ccccc4)c[nH]c3c(=O)n2C(C)C)c(OC)c1
  -1.2	-5.2
O=C(NCCc1ccccn1)C1CCCCC1C(=O)N1CCc2c([nH]c3ccccc23)C1 (stereo not drawn)
  -6.6	-12.3
CCc1ccc(-c2nc(C(N)=O)c3[nH]c(=O)n(-c4ccc(C(C)(C)C)cc4)c3n2)cc1
  -3.9	-4.3
COc1ccc(OCC(O)CN(Cc2nc3scc(-c4ccccc4F)c3c(=O)[nH]2)C(C)C)cc1 (stereo not drawn)
  -2.6	-1.3
O=C(c1cccc2c1OCC2)N1CCc2[nH]nc(-c3ccc4c(c3)OCO4)c2C1
  -0.9	-0.3

(more compounds)
Below each SMILES: NPYLR7 agonist	NPYLR7 agonist max-min
O=C(Nc1cccc(N2CCN(CC3CC3)CC2)c1)C1CC1
  8.1	5.7
COC(=O)c1csc(CN(C(=O)Nc2cccc(Br)c2)C(C)C)n1
  -5.2	8.4
Cc1nnsc1C(=O)N1CCN(CC(OCc2ccc(C#N)cc2)c2cccc(N3CCCC3)c2)CC1 (stereo not drawn)
  6.0	1.5
O=C(N1CCC(c2nc(-c3ccc(C(F)(F)F)cc3)no2)CC1)C1(c2ccc(Cl)cc2)CCCC1
  5.6	0.6
C[C@H](NS(=O)(=O)c1ccccc1F)C(=O)Nc1ccc2ccn(C)c2c1
  -1.6	0.2
CCOc1ccc(-c2nc(NC(=O)[C@H](C)NC(N)=O)sc2C)cc1
  -3.5	-2.8
CCOc1ccccc1N1CCN(C(=O)c2ccccc2N2CCC(NC(=O)c3cccs3)CC2)CC1
  7.2	17.9
CCOC(=O)c1cnc(C(C)(C)C)[nH]c1=O
  -2.5	-2.5
Cc1ccc(C(NC(=O)C2CCN(Cc3ccc(Oc4ccccc4)cc3)CC2)c2ccccn2)cc1 (stereo not drawn)
  3.4	10.6
FC(F)(F)c1ccccc1-c1cn(CCCc2cccnc2)nn1
  6.5	-7.0
COc1ccccc1NC(=O)CN1CCC(Cn2c(C(F)(F)F)nc3ccccc32)CC1
  -0.4	-1.6
O=C1Nc2ncccc2Oc2cc(F)cc(O)c21
  -1.8	-1.9
COc1ccc(S(=O)(=O)N(C)C)cc1NC(=O)c1cc2c(c(OC)c1)OC(C)C2 (stereo not drawn)
  4.9	0.8
Cc1c(Br)c([N+](=O)[O-])nn1CC(=O)NC1CCCCC1
  7.3	9.6
O=c1cc(-c2ccc(O)c(O)c2)oc2ccccc12
  -11.3	-13.6
Cc1cc(C)n(C(C)C(=O)NC(C)C(O)c2cccc(F)c2)n1 (stereo not drawn)
  0.5	-0.4
Cc1csc(NC(=O)CSc2nc(=O)n(CCN3CCOCC3)c3c2CCC3)n1
  0.3	-2.7
Cc1ccccc1-c1ncc(-c2nccn2-c2ccc3n[nH]nc3c2)cn1
  10.2	9.8
CC(C)(C)C(=O)Cn1cnc2sc3c(c2c1=O)CCCC3
  4.3	-2.4
COc1ncccc1-c1ccc(C(=O)C(C)C)s1
  5.1	-4.0
Cc1ccc(-n2nc(C(=O)NCCc3ccccn3)c(=O)n(Cc3ccccc3C)c2=O)cc1C
  14.5	16.1
CCCn1nnnc1NCc1ccc(-c2ccccc2)o1
  1.1	-0.3
C=CCC/C=C/C#CCCCCCCCC[C@H]1C(=O)O[C@H](C)[C@@H]1O
  -4.3	-13.9
Cc1ccc(NC(=O)C(C)NCc2ccccc2-n2cccn2)cc1 (stereo not drawn)
  3.0	7.6
Cc1c(C(=O)NCc2ccc(Cl)c(Cl)c2)sc(=O)n1Cc1ccc(S(C)(=O)=O)cc1
  5.1	1.9
CCC(C(=O)Nn1cnc2c(cnn2-c2ccc(C)c(C)c2)c1=O)c1ccccc1 (stereo not drawn)
  2.0	1.5
COC(=O)c1ccc2c(c1)C1CC(C)(O2)N(c2cccc(Br)c2)C(=O)N1 (stereo not drawn)
  2.1	7.3
CN=c1scc(C)n1N=Cc1c[nH]c2ccc(Br)cc12
  1.7	0.2
NC(=O)[C@@H]1Cc2ccccc2N1Cc1nnc(-c2ccccc2Br)o1
  3.2	-10.1
Cn1ccnc1-c1nccn1-c1ccc(-c2nc3ccccc3[nH]2)cc1
  16.9	11.5
CCOC(=O)C(Cc1ccccc1)NC(=O)C1CCS(=O)(=O)C1 (stereo not drawn)
  -3.2	-3.9
COc1ccc(S(=O)(=O)N(CCN2CCOCC2)Cc2nccn2Cc2cccc(OC)c2)cc1
  32.1	35.4
CCOCCN1N=C(C)C(C)n2c1nc1c2c(=O)n(CCOCC)c(=O)n1C (stereo not drawn)
  4.1	13.4
COCCCN(CC(=O)N(CCc1ccccc1)Cc1ccc(C)o1)Cc1ccc([N+](=O)[O-])cc1
  -3.6	-3.3
CCC1CSC(=Nc2ccc(Cl)cc2)N1C(=O)c1ccc(C)nc1 (stereo not drawn)
  -4.3	-4.7
CNC(=O)[C@H]1C[C@]2(CCCCNC2=O)N(C(=O)c2cc3ccccc3s2)[C@H]1c1ccco1
  -1.0	8.9
Cc1noc(C)c1C1CCCN1CCn1c(=O)oc2ccccc21 (stereo not drawn)
  -0.9	3.0
COc1ccccc1CN1C[C@@H]2C[C@@H](c3cnn(-c4ccccc4F)c3)N3CCC[C@@]23C1=O
  1.8	-0.9
C=CCN1CCC(C(=O)NC(c2ccc(F)cc2)c2ncccc2C)CC1 (stereo not drawn)
  8.1	10.5
O=C(CNS(=O)(=O)c1ccc(Br)cc1)N1CCCC1
  10.0	3.6
CN(C)c1ccc(/C=C2\N=C(c3cccc(Br)c3)OC2=O)cc1
  -1.8	-4.7
Cc1cccc(CC(=O)Nc2c(C)nc3c(C)cccn3c2=O)c1
  0.2	0.4
CC[C@H]1CN2CCc3cc(OC)c(OC)cc3C2C[C@@H]1CC1NCCc2cc(OC)c(OC)cc21 (stereo partly drawn)
  -3.4&6.2	-7.2&-1.5
COCCn1ccnc1CN1CC[C@@H](c2ccc(F)cc2)[C@H](O)C1
  5.4	3.0
COCCN(Cc1ccc(C(O)(c2ccccc2)c2ccccc2)o1)Cc1ccccc1OC
  -2.1	4.2

Profiles from above. Screens in order: NPYLR7 agonist | NPYLR7 agonist max-min
Results for COc1ccccc1CN1C[C@@H]2C[C@@H](c3cnn(-c4ccccc4F)c3)N3CCC[C@@]23C1=O → 1.8 | -0.9
Results for CCOCCN1N=C(C)C(C)n2c1nc1c2c(=O)n(CCOCC)c(=O)n1C (stereo not drawn) → 4.1 | 13.4
Results for COCCCN(CC(=O)N(CCc1ccccc1)Cc1ccc(C)o1)Cc1ccc([N+](=O)[O-])cc1 → -3.6 | -3.3
